miR-21 reporter: qHTS Assay for Modulators of miRNAs and/orActivators of miR-21 | HeLa miR-21 FLuc reporter, luciferase, 48 h | Potency, µM (highest dose often 38.3 µM), for inactives: top-dose reporter change, positive = more light | 340,000 tested, under 10 active; active = well fitted rising curve with a large enough effect; inconclusive = small, poorly fitted or top-dose-only effect; inactive = no such curve, though single readings can be large or run the other way;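 also: % of control where 0% means no effect; miR-21 action dims this reporter so a rising signal means less miR-21 action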
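HeLa cells endogenously expressing miR-21, stably carrying CMV-driven firefly luciferase with a downstream miR-21 binding site, 2000 cells/well. Titrations up to approximately 40 uM, 48 hours; luciferase luminescence read.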
Rango dissoc inh: qHTS Assay for Inhibitors of RanGTP induced Rango (Ran-regulated importin-beta cargo) - Importin beta complex dissociation; Snurportin-1 (Homo sapiens) + GTP-binding nuclear protein Ran (Homo sapiens) + Importin …; Biochemical FRET Rango-importin beta, RanGTP-induced dissociation; Potency, µM (titrated, usually from 46.1 µM), for the others: top-dose activity change, negative = inhibition; 340,000 compounds, 0.071% hits; AID 540253, 2011; active means falling FRET ratio curve, often poorly fitted, with flat reads before Ran was added; inconclusive means other falling curves, or compound fluorescence or quenching; inactive means flat or rising ratio curve;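 also: potency is read from the fitted curve at half-maximal effect; % of control where 0% means no effect; nearly all actives have a fitted effect of over 45% in size; -100% = wells without RanGTP and RCC1; the record marks most hits as doubtful in a second field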
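Compounds sat 5 min at room temperature with 0.1 uM Rango biosensor plus 0.25 uM importin beta, then FRET pre-read. RanGTP-RCC1 (0.6 uM Ran, 2mM GTP, 0.2 uM RCC1) added for 45 min, and the CFP/YFP post-read measured blocked complex dissociation.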
GLA inh pH 4.5: qHTS Assay for Inhibitors of Human alpha-Galactosidase at pH 4.5. Alpha-galactosidase A (Homo sapiens), P06280. 230,000 tested, under 10 active. purified enzyme, 4-MU-alpha-Gal fluorescence, pH 4.5. AID 1467, 2008. activity change, negative = inhibition, % at 105 µM; inconclusive = small, poorly fitted or top-dose-only inhibition, or a rising curve; inactive = flat fitted curve, though single readings scatter; no compound was filed as active;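 also: 0% = full activity with enzyme and -100% = basal without enzyme; dose as in the result columns while the protocol names 77 µM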
Rango-impB inh: qHTS Assay for Inhibitors of Rango (Ran-regulated importin-beta cargo) - Importin beta complex formation | Importin subunit beta-1 (Homo sapiens), Q14974 | Rango CFP/YFP FRET sensor + importin beta, 45 min | Potency, µM (highest dose often 92.2 µM), without a hit: top-dose inhibition of complex formation | 340,000 compounds, 0.031% hits; active = rising FRET ratio curve, often small or poorly fitted; inconclusive = mostly compound fluorescence or quenching in the first reads; inactive = flat curves in all reads;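 also: potency is read from the fitted curve at half-maximal effect; 0% = DMSO wells and 100% = buffer wells lacking importin beta; nearly all actives have a fitted effect of over 15% in size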
Target sequence (Q14974 whole entry, looked up): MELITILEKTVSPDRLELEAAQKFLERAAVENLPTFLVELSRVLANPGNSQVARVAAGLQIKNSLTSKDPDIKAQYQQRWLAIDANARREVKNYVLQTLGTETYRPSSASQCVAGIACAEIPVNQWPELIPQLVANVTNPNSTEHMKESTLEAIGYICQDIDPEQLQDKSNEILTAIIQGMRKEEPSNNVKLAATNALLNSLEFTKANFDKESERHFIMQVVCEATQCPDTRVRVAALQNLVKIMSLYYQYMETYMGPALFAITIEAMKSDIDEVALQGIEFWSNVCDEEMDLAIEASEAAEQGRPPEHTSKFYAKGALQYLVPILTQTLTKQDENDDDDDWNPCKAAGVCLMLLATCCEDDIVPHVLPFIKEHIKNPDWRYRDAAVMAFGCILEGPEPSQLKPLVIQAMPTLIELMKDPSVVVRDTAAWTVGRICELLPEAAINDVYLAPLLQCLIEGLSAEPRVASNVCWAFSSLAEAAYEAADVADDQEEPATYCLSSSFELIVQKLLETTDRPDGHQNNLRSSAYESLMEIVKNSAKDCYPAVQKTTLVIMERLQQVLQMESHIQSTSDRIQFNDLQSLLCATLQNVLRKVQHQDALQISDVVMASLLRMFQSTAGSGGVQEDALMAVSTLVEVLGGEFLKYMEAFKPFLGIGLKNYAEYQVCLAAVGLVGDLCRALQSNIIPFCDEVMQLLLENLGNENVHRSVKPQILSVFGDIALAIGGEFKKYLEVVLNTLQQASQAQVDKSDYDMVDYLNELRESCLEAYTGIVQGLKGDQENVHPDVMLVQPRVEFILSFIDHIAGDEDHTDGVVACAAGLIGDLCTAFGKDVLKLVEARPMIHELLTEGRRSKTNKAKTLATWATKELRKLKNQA
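FRET biosensor (snurportin 1 IBB flanked by EYFP and cerulean), 50 nM, with compound 5 min, then 0.125 microM importin beta in PBS, 1 mM DTT, 0.02% Tween-20, 0.1% BSA. CFP/YFP ratio read after 45 min at room temperature; pre-read flags interference.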
Active calls of the source: *; ? = inconclusive; . = not tested or not shown; [ ] = remark or other dose.

SMILES	miR-21 reporter	Rango dissoc inh	GLA inh pH 4.5	Rango-impB inh
COc1ccc(/C=C2\SC(=S)N(CCCC(=O)N3CCOCC3)C2=O)cc1OC	2%	12%	.	-0.2%
NC(=O)CCN1CCN(CCOC2Cc3cc(Cl)ccc3Sc3ccccc32)CC1 (centres undefined)	12%	-15%	-8	1.4%
CCc1cc(-c2[nH]ncc2-c2ccc([N+](=O)[O-])cc2)c(O)cc1OC	28%	4%	.	3.9%
COc1ccc(Cn2c(=O)[nH]c3cc(C(=O)Nc4ccc(N5CCN(C)CC5)cc4)ccc32)cc1	-9%	1%	5	3.5%
Cc1c(C(=O)N(C)CCn2ccnc2C)oc2c(F)cccc12	5%	14%	.	0.3%
Cc1ccc(S(=O)(=O)Cn2nnnc2C(C(C)C)N2CCN(c3nc4ccccc4s3)CC2)cc1 (centres undefined)	-4%	12%	-8	0.3%
O/N=C1\CCCc2ccccc21	-3%	-2%	1	0.9%
O=C(CC(c1ccccc1)c1cc(Br)ccc1O)N1CCCCC1 (centres undefined)	16%	33%	2	1.4%
O=C(CN1C(=O)C2C3CC(C(Br)C3Br)C2C1=O)N1CCN(Cc2ccccc2)CC1 (centres undefined)	0%	?	-9	?
CCOC(=O)C1(C)C=C(Nc2ccc(NC(C)=O)cc2)C(=O)N1c1ccc(NC(C)=O)cc1 (centres undefined)	-2%	0%	-1	3.2%
C[C@@H]1CN([C@H](C)CO)C(=O)Cc2cc(NC(=O)CCC(F)(F)F)ccc2O[C@@H]1CN(C)C(=O)NC1CCCCC1	.	28%	.	-0.4%
C/C(=N/NC(=O)c1cccs1)c1ccc(NC(=O)COc2ccc(Cl)cc2)cc1	-28%	14%	-9	1.8%
CCN(CC)CCNC(=O)c1ccc(NC(=O)C2CCN(S(=O)(=O)c3ccc4c(c3)OCCO4)CC2)cc1	.	0%	.	0.7%
Cc1cccc(N2CCN(C(=O)CCCn3c(=O)[nH]c4ccsc4c3=O)CC2C)c1 (centres undefined)	14%	-1%	.	0.4%
COC(=O)c1sccc1NC(=S)OC	0%	-4%	-4	0.3%
COc1ccc(-n2c(C)c(C(C)=O)c3cc(OCC(N)=O)ccc32)cc1	-15%	0%	9	-3.6%
Cc1ccccc1C(C(=O)NCc1ccccc1)N(Cc1ccco1)C(=O)c1ccccn1 (centres undefined)	18%	-7%	-21	-3.1%
COc1ccc(CCNC(=O)CSc2nn(-c3ccccc3)c(=S)s2)cc1OC	-8%	0%	2	-0.6%
CCNC(=O)C1CCCN1S(=O)(=O)c1ccc(C)cc1 (centres undefined)	-7%	-8%	6	2.3%
CCOP(=O)(c1ccccc1)C1(O)CCCCC1 (centres undefined)	4%	-18%	6	0.1%
Cc1cc(Br)c(S(=O)(=O)NCCN2CCOCC2)cc1C	-5%	15%	-7	-0.2%
Cc1occc1C(=O)Nc1ccc([N+](=O)[O-])cc1Br	-9%	-3%	.	1.7%
COC(=O)c1sccc1NC(=O)CSc1ccccc1NS(=O)(=O)c1ccc(Br)cc1	1%	-6%	-17	0.9%
N#CCCN(C(=O)COC(=O)C1=COCCO1)c1ccc(F)cc1	.	12%	.	-0.9%
COc1ccc(N(CC(=O)NC2CCCCC2)C(=O)CNC(=O)c2ccco2)c(OC)c1	-13%	0%	-3	0.1%
Cc1ccc(NC(=S)NCc2ccc3c(c2)OCO3)c(C)c1	-14%	-2%	-7	0.2%
COc1ccc(C)cc1S(=O)(=O)N(CC(=O)O)c1ccccc1	-5%	-3%	-6	0.2%
CC12CCC(C(=O)NCCc3ccccc3)(OC1=O)C2(C)C (centres undefined)	-4%	-4%	-17	-3.0%
O=C(Cc1cccs1)Nc1nc2c(s1)CCCC2	-5%	-19%	1	-5.4%
CNC(=O)c1cccnc1Nc1cccc(C(F)(F)F)c1	-45%	-1%	-8	0.2%
COc1cc(/C=N/n2nnnc2N)ccc1OCC#N	0%	21%	.	-3.3%
Cc1nc2ccccc2nc(C)c1=NOCc1ccc(C#N)cc1	-64%	35%	5	3.6%
CCCC1/C(=N/O)CC(c2ccccc2)NC1c1ccccc1 (centres undefined)	29%	-4%	-10[21.1 µM]	0.1%
Oc1ccccc1-c1n[nH]c(-c2ccccc2O)n1	.	1%	.	-2.6%
OCc1nn2c(c1Br)NC(c1ccccc1)CC2C(F)(F)F (centres undefined)	-3%	-7%	-13	-0.3%
CCn1c(SCC(=O)NCc2ccc(C)cc2)nnc1-c1ccncc1	-4%	-3%	-5	-3.5%
COc1ccccc1CN1CCCC(CNC(=O)c2cccc3ccccc23)C1 (centres undefined)	-1%	19%	.	?
OC(CN1CCN(c2cccc(Cl)c2)CC1)C(c1ccccc1)c1ccccc1 (centres undefined)	.	1%	-8	-0.6%
O=C(CN1C(=O)c2cccnc2Oc2ccc(Cl)cc21)NCCCc1ccccc1	19%	-9%	.	1.7%
Cn1c(=O)c2c(ncn2CC(=O)Nc2ccc3c(c2)OCO3)n(C)c1=O	.	0%	.	-0.4%
CC(=O)Nc1ccc(NC(=O)Oc2ccccc2)cc1	-3%	-7%	16	1.4%
COc1cccc(C(=O)NCc2ccco2)c1OC	-4%	-11%	.	?
CC(C)(C)OC(=O)N1CCC(C(=O)N[C@H](Cc2ccccc2)C(=O)O)CC1	-3%	19%	-5	1.0%
CCCc1ccc(-c2ccc(F)c(N)c2)nc1	23%	10%	3	-1.2%
Cc1cc(NCCc2ccc(Cl)cc2)n2ncnc2n1	4%	4%	-8	0.5%
CC1CCC(C(=O)NC(C(=O)N2CCC(N3CCCCC3)CC2)C(C)C)CC1 (centres undefined)	0%	1%	-2	2.5%
CC1CCCCN1CCNc1nc(=S)[nH]c2ccccc12 (centres undefined)	-8%	1%	3	-3.1%
CCN1CCc2c(C#N)c(NCc3ccccc3)nc(N(CC)CC)c2C1	-28%	-21%	-8	?
CCOc1ccc2nc(SCC(=O)N3CCCc4ccccc43)sc2c1	-11%	23%	-3	-3.3%
COc1ccccc1/C=N/NC(=O)c1[nH]c(C)c(C(=O)N/N=C/c2ccccc2OC)c1C	-1%	18%	0	1.0%
CC(C)N1C(=S)SC(C)(C)C1n1oc(=O)n(-c2ccc(Cl)c(Cl)c2)c1=O (centres undefined)	-8%	-12%	-7	0.3%
CC(O)[C@H](NC(=O)C1(c2ccccc2)CCN(C(=O)OC(C)(C)C)CC1)C(=O)O (some centres undefined)	1%	-1%	-6	0.0%
Oc1c(C=Nc2cccnc2)sc2ccccc12	-25%	?	-8	?
COc1ccccc1CNS(=O)(=O)c1ccc2[nH]cc(C(=O)O)c(=O)c2c1	-2%	13%	4	-0.9%
CCO[C@H]1c2c(ccc3ccc(=O)oc23)OC(C)(C)[C@@H]1O	.	7%	.	0.2%
COC(=O)C(NC(=O)Nc1ccccc1OC)C(C)C (centres undefined)	-1%	-11%	-8	-3.7%
COc1ccccc1CNC(=O)c1cc(C(=O)CC(C)C)c[nH]1	-5%	-5%	.	4.0%
COc1ccc(NC(=O)N(C)C[C@H]2Oc3c(NS(=O)(=O)c4ccc(F)cc4)cccc3C(=O)N([C@H](C)CO)C[C@@H]2C)cc1	.	-7%	.	0.6%
CCn1c(SCC(=O)c2ccc3c(c2)Cc2ccccc2-3)nnc1-c1ccc(N)cc1	-14%	5%	2	-4.2%
Nc1nonc1C(=Nc1ccccc1)NO	-5%	10%	-5	-6.1%

Structures above containing a cyano group (four):
SMILES	miR-21 reporter	Rango dissoc inh	GLA inh pH 4.5	Rango-impB inh
N#CCCN(C(=O)COC(=O)C1=COCCO1)c1ccc(F)cc1	.	12%	.	-0.9%
COc1cc(/C=N/n2nnnc2N)ccc1OCC#N	0%	21%	.	-3.3%
Cc1nc2ccccc2nc(C)c1=NOCc1ccc(C#N)cc1	-64%	35%	5	3.6%
CCN1CCc2c(C#N)c(NCc3ccccc3)nc(N(CC)CC)c2C1	-28%	-21%	-8	?

Entries of single compounds as entered above. Order of values: miR-21 reporter | Rango dissoc inh | GLA inh pH 4.5 | Rango-impB inh
`COc1ccc(NC(=O)N(C)C[C@H]2Oc3c(NS(=O)(=O)c4ccc(F)cc4)cccc3C(=O)N([C@H](C)CO)C[C@@H]2C)cc1` in the list: . | -7% | . | 0.6%
`Cn1c(=O)c2c(ncn2CC(=O)Nc2ccc3c(c2)OCO3)n(C)c1=O` in the list: . | 0% | . | -0.4%

Additional results.
SMILES	miR-21 reporter	Rango dissoc inh	GLA inh pH 4.5	Rango-impB inh
Cc1ccc(C2C(C#N)=C(N)Oc3n[nH]c(C)c32)cc1 (centres undefined)	-1%	5%	-7	-1.6%
C/C(=N\NC(=O)c1cccc(S(=O)(=O)N2CCOCC2)c1)c1ccc(OC(F)F)cc1	.	12%	.	5.3%
CC(C)(C)c1ccc(OCC(=O)N(c2ccccn2)C2CCCCC2)cc1	-3%	2%	-12	0.9%
COC(=O)c1cc(NC(=O)c2ccoc2C)cc(C(=O)OC)c1	23%	-3%	-11	-1.3%
Cc1ccc(CNC(=O)CCS(=O)(=O)c2ccc3c(c2)NC(=O)CS3)cc1	0%	9%	.	1.8%
Nc1nc2ccc([N+](=O)[O-])c(N)c2s1	-28%	0%	-2	1.9%
CCOc1cc(C(=S)N2CCN(C)CC2)ccc1OCC(=O)N1CCOCC1	-2%	20%	-6	2.2%
CN1CCCN(Cc2nc(-c3cccc(C(F)(F)F)c3)no2)CC1	-10%	1%	4	-2.5%
CC(C)CC(=O)Nc1ccnn1C1CCN(C(=O)c2ccccc2F)CC1	.	6%	.	5.8%
COc1ccc(CCN2CC(C(=O)NCCCn3nc(C)cc3C)CCC2=O)cc1 (centres undefined)	0%	11%	.	2.5%
CN(c1ccc(C(=O)Nc2ccc3c(c2)OCO3)cc1)S(C)(=O)=O	-7%	11%	-5	-0.8%
Cc1sc(NC(=O)/C=C/c2ccc3c(c2)OCO3)nc1-c1ccccc1	20%	16%	-3	1.3%
CCOC(=O)c1c(NC(=O)CCC(=O)O)sc2c1CCCCC2	-20%	5%	-1	-0.9%
CC(NC(=O)c1cccc(S(=O)(=O)N(C)c2ccccc2)c1)c1cccnc1 (centres undefined)	.	11%	.	0.9%
CCOC(=O)c1ccc(NC(=O)CCc2nc(-c3ccc(C)cc3)no2)cc1	12%	-2%	5	1.6%
CCOC(=O)c1ccc(NC(=O)c2c(NCc3ccccc3)[nH]c(=O)[nH]c2=O)cc1	.	2%	.	4.3%
O=C(Cn1nc(C(=O)O)c2ccccc2c1=O)Nc1cccc(S(=O)(=O)N2CCCCCC2)c1	.	1%	.	0.3%
COc1ccc([C@H]2CC(=O)C=C(c3cccc(OC)c3OC)C2)cc1OC	.	14%	.	-4.0%
O=C(CNC(=O)c1ccncc1)N/N=C/c1ccc(Br)cc1	0%	0%	1	0.1%
O=C(c1ccncc1)N1CCN(S(=O)(=O)c2ccc(F)cc2)CC1	-5%	0%	.	7.6%
CC(=O)NC(=S)Nc1cc(C(F)(F)F)ccc1N1CCOCC1	1%	1%	0	0.5%
COc1cccc(/C=C/C(=O)c2ccc(NS(=O)(=O)c3ccc(C)cc3)cc2)c1	8%	-6%	-7	0.0%
COc1ccc(/C=N/NC(=O)c2nnn(-c3nonc3N)c2CN(C)c2ccccc2)cc1	-5%	15%	.	1.4%
CC(C)[C@H](NC(=O)N1CCn2c1nc1ccccc12)C(=O)N[C@H](Cc1ccccc1)C(=O)O	0%	3%	.	3.3%
CC(C)c1ccc(N(C(=O)C(F)(F)F)C(C(=O)NC2CCCCC2)c2ccncc2)cc1 (centres undefined)	-2%	4%	2	-0.2%
O=C(c1ccc2c(c1)OCO2)N1CCN(c2ccccc2F)CC1	-27%	28%	0	0.1%
COC(=O)c1cccc(NC(=O)Cn2cnc3ccccc3c2=O)c1	-11%	1%	1	-3.8%
C(=N\Nc1ccccc1)/c1nc2ccccc2s1	-52%	?	12	?

An excerpt; the hit share may differ from the screen's.
